D2 PAM: potentiates the human D2 dopamine receptor allosterically; P14416; DiscoveRx D2 beta-arrestin cells, luminescence, 90 min; 100% = 57 uM dopamine signal; potentiation, % (test concentration not listed); hit rate 0.23% among 360,000; active = potentiation of 50% or more; inconclusive = 30% to 50%; inactive = 30% or less;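 note: compound concentration not given in the record; tested on top of an EC20 dose of dopamine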
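D2 cells co-treated with compound plus 50 nM dopamine (EC20) for 90 min at 37 deg C to detect potentiation. Beta-arrestin recruitment was read as enzyme-fragment luminescence after 1 h at ambient temperature. Full response was set by 57 uM dopamine.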
D2 agonist: human D2 receptor agonism in beta-arrestin assay | DiscoveRx PathHunter D2 beta-arrestin, luminescence, 90 min; 100% = 57 uM dopamine signal | activation, % (no concentration beside the values) | hit rate 0.084% among 360,000 | P14416 | AID 624465; in the data active = activation above about 40%; inconclusive = about 15% to 40%; inactive = below about 15%; note: compound concentration not given in the record; the text of the record calls up to 30% inactive
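Agonist mode: compounds alone added to overnight-plated D2 PathHunter cells for 90 min at 37 C, with 57 uM final dopamine (EC100) defining full response. Beta-arrestin recruitment detected by chemiluminescent reagent, read after 1 h at ambient temperature.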
CtBP-E1A blk: CtBP/E1A binding inhibition. activity change, % (test concentration not listed). hit rate 0.49% among 340,000. AlphaScreen GST-E1A/His-CtBP binding, 1536-well; active compounds read low; control for the full effect not named in the record. AID 651724; in the data active means activity change below about -65%; inconclusive means about -30% to -65%; inactive means above about -30%; note: % is set by controls: 0 for no effect and ±100 for the full control effect
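GST-E1A and His-tagged CtBP (125 nM each as 5X stock) were preincubated with pin-transferred compound for 2 h at 37 °C in the dark, then glutathione donor and nickel acceptor beads were added for 1 h before AlphaScreen reading.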
Six1-Eya2 inh: inhibitors of human Six1/Eya2 interaction; Q15475+O00167; AlphaScreen GST-Six1/His-Eya2 binding, biochemical; active compounds read low; control for the full effect not named in the record; activity change, % (test concentration not listed); hit rate 0.56% among 360,000; in the data active = activity change below about -65%; inconclusive = about -30% to -65%; inactive = above about -30%; note: % is set by controls: 0 for no effect and ±100 for the full control effect
Target sequence (O00167 whole entry, looked up): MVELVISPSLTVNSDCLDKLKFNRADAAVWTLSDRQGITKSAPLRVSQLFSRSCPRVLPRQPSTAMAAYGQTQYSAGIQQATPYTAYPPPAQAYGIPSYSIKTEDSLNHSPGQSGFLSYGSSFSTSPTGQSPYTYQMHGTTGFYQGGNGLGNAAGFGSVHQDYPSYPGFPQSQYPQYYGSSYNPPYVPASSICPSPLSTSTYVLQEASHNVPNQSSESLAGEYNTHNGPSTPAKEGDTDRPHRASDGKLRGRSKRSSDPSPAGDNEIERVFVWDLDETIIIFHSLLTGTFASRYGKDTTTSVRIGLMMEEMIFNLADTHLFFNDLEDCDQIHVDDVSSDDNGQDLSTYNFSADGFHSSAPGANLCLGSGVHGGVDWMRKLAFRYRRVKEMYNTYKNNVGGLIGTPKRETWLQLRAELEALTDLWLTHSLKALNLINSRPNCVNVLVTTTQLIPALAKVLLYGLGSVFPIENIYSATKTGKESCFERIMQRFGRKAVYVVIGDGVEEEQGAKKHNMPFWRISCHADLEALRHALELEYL
Target sequence (Q15475 whole entry, looked up): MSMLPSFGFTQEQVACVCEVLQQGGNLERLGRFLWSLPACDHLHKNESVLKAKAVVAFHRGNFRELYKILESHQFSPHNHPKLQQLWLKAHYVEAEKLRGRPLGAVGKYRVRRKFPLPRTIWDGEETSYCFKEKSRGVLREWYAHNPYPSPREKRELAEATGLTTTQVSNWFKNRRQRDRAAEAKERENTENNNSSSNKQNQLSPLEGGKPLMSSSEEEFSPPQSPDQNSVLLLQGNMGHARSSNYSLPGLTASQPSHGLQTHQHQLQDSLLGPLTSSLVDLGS
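GST-Six1 + His-Eya2 (5X stock: 250/500 nM); Tris pH 8.0, 300 mM NaCl, 0.05% BSA, 0.02% Tween 20; GSH donor/Ni acceptor beads; 1 h 37 °C dark; AlphaScreen readout.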
TRPML1 ag: activates the human TRPML1 channel | Q9GZU1 | TRPML1-expressing cells, Ca2+ dye fluorescence, FDSS; host cell line not named in the record; reference of the full effect not given here | activation, % (no concentration beside the values) | hit rate 0.12% among 410,000 | AID 624414; in the data active = activation above about 50%; inconclusive = about 30% to 50%; inactive = below about 30%; note: 0% is about no effect; the text of the record puts the active cut at 80%
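In this qHTS format, compounds were pin-transferred onto Ca8-dye-loaded TRPML1-DL cells induced with Tet overnight, and intracellular Ca2+ fluorescence was recorded kinetically for 110 s after a 10 s baseline. A subsequent 4uM final 54-4 (EC80) addition followed by a second 110 s read served as the antagonist phase.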
PINK1 expr mod: changes PINK1 expression. PINK1 immunofluorescence, high-content cytometry, 24 h. Potency, µM (titrated, usually from 76.6 µM), for the others: at the top dose activation (PINK1 increase), usual class: activators. hit rate 0.2% among 410,000; active = well fitted activation curve with a large enough effect; inconclusive = small, poorly fitted or top-dose-only effect; inactive = flat fitted curve, though single readings scatter; cell line not stated here;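 note: potency is the fitted concentration of half-maximal effect; % of control where 0% means no effect; nearly all actives have a fitted effect of over 65% in size; a mitochondrial uncoupler was the plate control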
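Fluorescence from anti-PINK1 antibody, together with nuclear and cell stains, was scanned on a laser-scanning cytometer. Before staining, stable-line cells were incubated 24 hours with compounds at 5 concentrations; primary antibody 12 h at 10 degrees C.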
* = called active by the depositor; ? = inconclusive; / = no result given; [ ] = remark or other dose. Compounds as they come. About 1.3% of those tested had a hit in this group.

SMILES	D2 PAM	D2 agonist	CtBP-E1A blk	Six1-Eya2 inh	TRPML1 ag	PINK1 expr mod
CCN(CC)C(=O)CSc1nnc(-c2ccc(S(=O)(=O)NCc3ccccc3Cl)cc2)o1	-1	-0.4	1	0	0.1	3.3%[38.3 µM]
Cc1ccc(-n2c(C)cc(C)c(C#N)c2=O)cc1Cl	0	-1.4	4	2	1.5	-1.0%
COc1cccc(CNC(=S)Nc2ccc3c(c2)c(=O)n(C)n3Cc2csc(C)n2)c1	3	5.5	0	0	-0.9	1.0%
CCOc1ccccc1N(CC(=O)N/N=C(\C)c1cccc(Br)c1)S(C)(=O)=O	-10	-3.2	-9	-5	2.5	0.2%
COc1cccc(C(=O)NCC(=O)N2CCC(C)CC2)c1	-12	-1.8	5	0	-0.9	-0.8%
O=S(=O)(Nc1ccccc1N1CCOCC1)c1c(F)cc(F)cc1Br	-13	-6.2	1	5	0.1	1.3%
CCSc1nnc(NC(=O)C(C)(C)C)s1	-17	-2.5	1	1	-0.1	-0.3%
O=C(O)c1ccc(NC(CSCc2cccc(F)c2)C(=O)O)c([N+](=O)[O-])c1 (configuration not stated)	-23	-5.3	9	-1	0.5	2.9%[38.3 µM]
Cc1ccc2[nH]c(=O)c(CN(Cc3nnnn3Cc3ccccc3)C3CCCC3)cc2c1	3	-4.8	6	2	1.4	/
CCc1ccc(CCC(=O)Nc2ccc(Br)cc2)o1	-4	-7.2	0	-2	1.4	5.4%
COc1ccc([N+](=O)[O-])cc1NC(=O)Cc1c(Cl)cccc1Cl	-12	-7.6	6	3	-0.6	9.0%
COc1ccc2[nH]c(C(=O)N3CCc4ccccc4C3)c(C)c2c1	-8	4.6	/	5	1.2	-0.1%
CCOC(=O)c1ccc(S(=O)(=O)Nc2ccc(N3CCOCC3)cc2)cc1	-8	-4.0	0	-7	-0.3	1.1%
O=c1onc(-c2ccccc2)n1Cc1ccc([N+](=O)[O-])cc1	8	4.2	-4	-3	-1.0	-0.8%
CC(C)(C)C(=O)CSc1ccc(S(=O)(=O)N2CCCC2)cn1	-3	-2.9	-18	3	1.4	0.7%

4 neighbouring compounds already listed, for reference:
SMILES	D2 PAM	D2 agonist	CtBP-E1A blk	Six1-Eya2 inh	TRPML1 ag	PINK1 expr mod
COc1cccc(CNC(=S)Nc2ccc3c(c2)c(=O)n(C)n3Cc2csc(C)n2)c1	3	5.5	0	0	-0.9	1.0%
CCOc1ccccc1N(CC(=O)N/N=C(\C)c1cccc(Br)c1)S(C)(=O)=O	-10	-3.2	-9	-5	2.5	0.2%
COc1cccc(C(=O)NCC(=O)N2CCC(C)CC2)c1	-12	-1.8	5	0	-0.9	-0.8%
O=S(=O)(Nc1ccccc1N1CCOCC1)c1c(F)cc(F)cc1Br	-13	-6.2	1	5	0.1	1.3%

Profiles from above. Order of values: D2 PAM	D2 agonist	CtBP-E1A blk	Six1-Eya2 inh	TRPML1 ag	PINK1 expr mod
CCOc1ccccc1N(CC(=O)N/N=C(\C)c1cccc(Br)c1)S(C)(=O)=O in the list: -10	-3.2	-9	-5	2.5	0.2%
COc1ccc([N+](=O)[O-])cc1NC(=O)Cc1c(Cl)cccc1Cl in the list: -12	-7.6	6	3	-0.6	9.0%
CCc1ccc(CCC(=O)Nc2ccc(Br)cc2)o1 in the list: -4	-7.2	0	-2	1.4	5.4%

(listing goes on)
SMILES	D2 PAM	D2 agonist	CtBP-E1A blk	Six1-Eya2 inh	TRPML1 ag	PINK1 expr mod
O=C(O)CCCCCNS(=O)(=O)/C=C/c1ccccc1	-3	-2.9	14	10	0.4	0.2%
CCOc1ccccc1-c1nc(C(N)=O)c2[nH]c(=O)n(-c3ccc(F)cc3)c2n1	-6	-0.8	-6	5	-0.3	11%
COc1ccc(S(=O)(=O)N(C)C[C@@H]2OCCCC[C@@H](C)Oc3ccc(NC(=O)NC(C)C)cc3C(=O)N([C@H](C)CO)C[C@@H]2C)cc1	1	3.7	-4	-6	-0.8	0.8%
COc1ccc(C(=O)c2coc3ccc(O)c(CN4CCCCC4)c23)cc1	-6	1.8	0	-9	-0.4	1.0%
COc1cc([N+](=O)[O-])cc(/C=N/NC(=O)C(C)Nc2cccc3ccccc23)c1O (configuration not stated)	-45	-9.5	?	?	2.6	6.3%
Brc1ccccc1OCCCCn1cnc2ccccc21	-12	4.0	-10	3	2.8	0.2%
O=C1c2ccccc2C(=O)N1c1nc(-c2cccs2)cs1	-10	-1.6	0	3	0.6	1.7%
O=C(COC(=O)c1cccnc1Cl)Nc1ccc(S(=O)(=O)N2CCOCC2)cc1	1	0.1	-4	-8	-0.3	-2.7%
Cc1onc(-c2ccccc2)c1C(=O)N1CCN(C)CC1	-11	1.2	8	0	-0.3	/
COc1ccc(CC(N)c2csc(NC(=O)Nc3ccc(F)cc3)n2)cc1 (configuration not stated)	5	13	-22	-10	-0.3	4.2%
Cc1noc(C)c1S(=O)(=O)N(C)CC(=O)Nc1ccc(F)cc1	-14	-3.6	0	0	-0.6	-0.1%[38.3 µM]
COc1ccc(NC(=O)CCC(=O)c2ccc(F)cc2)cc1	-6	-2.3	3	-6	-0.3	2.2%
Cc1cc(OCC(=O)OCC(=O)NC2CCCC2)ccc1Cl	-2	1.9	0	2	-0.7	-2.1%
NS(=O)(=O)c1cccc(NS(=O)(=O)c2ccc(/C=C/C(=O)OCC(=O)c3ccc(Br)cc3)cc2)c1	6	3.2	0	-20	-0.6	1.5%
COc1ccc(C(=O)C2CCCN(Cc3cccn3-c3nccs3)C2)cc1F (configuration not stated)	-24	-3.3	-12	-9	0.9	6.1%
COc1ccccc1C(=O)COC(=O)c1nc2nc(C)cc(C)n2n1	7	-3.2	-5	1	-0.9	6.5%
Cc1csc(NC(=O)CCNC(=O)c2ccccc2Cl)n1	-8	4.1	2	1	0.7	-0.5%
CC(=O)OCC1OC(n2ccc3ccccc32)C(OC(C)=O)C(OC(C)=O)C1OC(C)=O (configuration not stated)	-2	-0.9	-3	2	-1.2	-1.8%
CCCNC(=O)Cn1cnc2sc(C(=O)N3CCN(c4ccc(F)cc4)CC3)c(C)c2c1=O	3	-1.6	0	-1	-0.6	4.7%[38.3 µM]
O=C1COc2ccc(S(=O)(=O)N3CCc4ccccc43)cc2N1	-7	-2.8	-2	2	/	0.4%
O=C(NCC1CCCO1)c1ccc(COc2ccc(Br)cc2)cc1 (configuration not stated)	-12	-3.7	-18	4	2.1	1.6%
CC12CCC(c3c(C(=O)Nc4nccs4)nn(-c4ccccc4)c31)C2(C)C (configuration not stated)	-11	1.4	0	-2	1.6	4.9%[38.3 µM]
O=C(c1ccc(-c2ccccc2)cc1)N1CCN(C(=O)c2ccco2)CC1	-4	2.2	9	-1	-0.7	3.8%
COc1cc(C=O)c(Br)cc1OC1CCCC1	-12	-3.6	17	10	3.0	-1.1%
O=C(NCc1cccnc1)C1c2ccccc2C(=O)N1Cc1ccco1 (configuration not stated)	-1	-2.0	6	3	0.6	-1.3%[38.3 µM]
N#CCCN(C(=O)Nc1ccc(Cl)c(Cl)c1)c1ccccc1	-12	-0.3	5	2	0.0	0.8%
COC(=O)c1cc(C(=O)Nc2ccc(S(N)(=O)=O)cc2)cc([N+](=O)[O-])c1	3	3.6	0	0	-0.4	2.3%
O=C(CN1C(=O)NC2(CCCCC2)C1=O)Nc1nc2c(F)cc(F)cc2s1	0	-2.3	-2	-6	0.8	0.3%
CCOC(=O)c1cccc(NC(=O)CCc2c(C)nc3ncnn3c2C)c1	-4	-2.9	-5	-3	0.1	-0.3%
CCN1CCN(S(=O)(=O)c2ccc(S(=O)(=O)N(CC)Cc3ccccc3)cc2)CC1	-6	1.3	3	2	-0.4	1.4%[38.3 µM]
O=C(c1cccs1)N1CCC(C(=O)N2CCN(Cc3ccc4c(c3)OCO4)CC2)CC1	7	?	3	9	0.1	8.4%
CC(C)(C)C(=O)N1CCC(O)(CS(=O)(=O)Cc2ccc(Cl)cc2)CC1	-20	-1.3	-6	-1	0.8	/
C=CCn1c[n+](CC(=O)c2ccc(Br)s2)c2ccccc21	-17	-3.2	-4	-1	-0.2	-0.4%
CCCn1c(SCC(=O)c2ccc3c(c2)OCCO3)nnc1C(C)C	-5	-1.0	-3	2	-0.3	-1.1%
CCc1nc2c(OCc3ccc(C(=O)OC)cc3)cccn2c1N(C)C(=O)CC(C)C	-6	-3.8	1	-5	-1.1	1.3%
CC(NC(=O)Cc1cccs1)c1ccccc1 (configuration not stated)	-5	4.7	4	-1	1.5	1.0%
O=C(NCc1ccncc1)C12CC3CC(CC(Cl)(C3)C1)C2	-15	-2.4	-5	13	-0.1	2.4%
O=C(Cn1c(C(F)(F)F)nc2ccccc21)NCCCN1CCOCC1	-10	-2.0	10	3	-0.4	/
c1csc(-c2nc3ccccc3[nH]2)c1	-1	-2.8	4	-1	-0.9	-2.0%
O=S(=O)(c1ccccc1Cl)N1CCCC1c1nc(-c2cccc(Cl)c2)no1 (configuration not stated)	4	-1.2	10	15	7.7	-1.0%
CCCc1ccc(OCC(O)CN2CCN(c3ccccn3)CC2)cc1 (configuration not stated)	-11	?	-18	0	0.5	0.4%
C=CCN1C(=O)/C(=C/C=C2/N(CC)c3ccc(S(=O)(=O)N(C)C)cc3N2CC)SC1=S	-16	-3.4	/	-1	0.0	8.6%
COC(=O)c1sccc1NC(=O)c1ccc(C)o1	-19	-4.5	-7	-9	-0.5	0.9%
O=C(Nc1nnc(CSCc2ccc(Cl)cc2)s1)c1cccc([N+](=O)[O-])c1	-2	-5.7	1	6	1.0	?
CC(=O)C1=C(O)C(=O)N(CC#N)C1c1cccs1 (configuration not stated)	-10	0.3	0	3	2.0	-0.1%
CCCc1[nH]nc2c1C(/C(C)=C/c1ccccc1)C(C#N)=C(N)O2 (configuration not stated)	8	0.2	5	-3	0.3	-1.1%[38.3 µM]
COC1CCCCC1Nc1cc(C)cc(C)c1 (configuration not stated)	-10	-3.4	10	-14	0.2	/
CC(=O)c1ccc(-n2nnnc2SCC(=O)N2CCN(C(=O)c3ccco3)CC2)cc1	-5	-1.6	0	11	0.9	-1.3%
CCC(C)NC(=O)CC1Oc2ccc(Cl)cc2NC1=O (configuration not stated)	-4	0.1	0	2	1.1	0.5%
C/C(CCc1oc2c(Br)cc(Br)cc2c1-c1ccc(C)o1)=N\O	4	-3.4	6	-19	0.7	?
CCN(CC)S(=O)(=O)c1ccc(NC(=O)CNC2CCCCC2)cc1	-8	-1.3	/	13	2.0	0.5%
Cc1ccc(CN2CCC(n3nccc3NC(=O)C3CCOC3)CC2)cc1 (configuration not stated)	-29	-3.5	7	-1	-0.4	-0.6%
O=C(Nc1nc(COc2ccccc2)cs1)C1CCC1	3	0.0	34	19	1.4	10%
COc1ccc(-c2cc3nc(-c4ccccc4)cc(N4CCC(O)CC4)n3n2)cc1	-5	2.3	2	15	0.4	0.2%
Cc1[nH]c2ccccc2c1/C=C/c1nc2ccccc2c(=O)n1CCO	3	-1.2	4	-7	0.2	-3.4%
Cc1cc(=O)oc2cc(OC(C)C(=O)NC3(C#N)CCCCC3)ccc12 (configuration not stated)	-5	5.1	1	3	-0.6	0.2%
COc1cc(NC(=O)c2cccs2)ccc1NC(=O)c1ccccc1Cl	-17	-1.4	-10	-22	-1.5	1.1%

Compound activity as filed in PubChem BioAssay.
